Sa helicase inh: inhibitors of S. aureus replicative helicase, primary screen, biochemical, fluorescence unwinding readout. replicative DNA helicase (DnaC/DnaB), Staphylococcus aureus. purified S. aureus helicase, fluorescence unwinding assay; about half of the hits fall short of the stated cut. inhibition, %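 (tested at about 80 µM)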. 120,000 tested, 0.05% active. AID 485395, 2010;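 active = both duplicates at 50% or more, or one of them with a favoured structure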;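 also: 0% = mean of negative control wells and 100% = mean of positive control wells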
MgrA DNA FP: S. aureus MgrA activity modulators, primary screen, biochemical, S. aureus Newman, fluorescence polarization; MgrA-DNA binding; inhibition, %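 (about 10 µg/mL by stock and volumes)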; 84,000 tested, 0.13% active; AID 602314, 2012;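 active = above 50% in either of two replicates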;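 also: 0% = protein plus DNA without compound and 100% = DNA alone without protein; higher means less MgrA bound to DNA so lower polarization; one replicate is shown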
An asterisk follows results filed as active; . = no result given; & = joins results of further samples. A portion of the library. The share of hits here may be higher or lower than overall.

SMILES	Sa helicase inh	MgrA DNA FP
CCN(CC(=O)Nc1cc(Cl)ccc1C)CC(=O)N1CCOC1=O	2	.
O=C(/C=C/c1ccco1)Nc1cccc(-c2nc3ccccc3o2)c1	-2	5.1
COC(=O)c1ccc(NC(=O)C23CC4CC(CC(Cl)(C4)C2)C3)cc1	-33	-1.4
C=CCN1C(=O)OC(C)(CCC=C(C)C)C1(C)O (stereo unspecified)	9	.
CC(Oc1ccccc1)C(=O)N[C@@H]1C(=O)N2[C@@H]1SC(C)(C)[C@@H]2C(=O)O (stereo partly specified)	.	4.9
N#Cc1cn(CC(=O)N2CCCC2)c2ccccc12	8	-1.6
COc1cccc(OC)c1CN(C)C(=O)c1cnc(SC)cc1C(F)(F)F	.	-0.5
COc1ccc2c(c1)Nc1ccccc1S2	6	-0.4
CCc1nnc(NC(=O)COc2ccc(Cl)cc2)s1	19	.
NNC(=O)C(O)c1ccccc1 (stereo unspecified)	-12	-0.3
O=C(O)C1C(=O)NCC1c1ccccc1 (stereo unspecified)	-7	.
CCCc1cc(=O)[nH]c(SCc2cc(C(=O)OC)c(C)o2)n1	0	.
O=C(O)CSCC(=O)Nc1ccc(-c2csnn2)cc1	.	-1.9
CCOC(=O)c1c(C)[nH]c(C)c1S(=O)(=O)NCC1CCN(Cc2ccccc2F)CC1	4	.
COc1cc2[nH]c(=S)nc(Nc3ccc(NC(C)=O)cc3)c2cc1OC	41	.
CC(=O)Nc1ccc(/C(N)=N/O)cc1	.	-2.3
COc1ccc(Cl)cc1NC(=O)C(C)N1c2ccccc2CC1C (stereo unspecified)	8	.
O=C(OCCS(=O)(=O)c1ccccn1)c1ccccc1	.	2.4
CSc1sc(SC)c(CO)c1CO	1	-1.9
Cn1c2c(c3cc(Oc4ccccc4)ccc31)CCCC2=O	7	0.9
CCC(=O)N1N=C(C(F)(F)F)CC1(O)c1ccc(F)cc1 (stereo unspecified)	-19	1.4
O=C(O)CCC(=O)N1N=C(c2ccc(Br)cc2)CC1c1cn(-c2ccccc2)nc1-c1ccccc1 (stereo unspecified)	.	0.2
S=C(NCCC1=CCCCC1)Nc1ccc2nsnc2c1	6	0.6
O=C(CCSc1ccc(Br)cc1)Nc1cccnc1	-21	0.1
COC(=O)c1ccc(OC)c(I)c1	-19	.

Record cards, as listed above. Order of screens: Sa helicase inh | MgrA DNA FP
`N#Cc1cn(CC(=O)N2CCCC2)c2ccccc12` across the screens: 8 | -1.6
`CC(Oc1ccccc1)C(=O)N[C@@H]1C(=O)N2[C@@H]1SC(C)(C)[C@@H]2C(=O)O` (stereo partly specified) across the screens: . | 4.9
`NNC(=O)C(O)c1ccccc1` (stereo unspecified) across the screens: -12 | -0.3
`O=C(CCSc1ccc(Br)cc1)Nc1cccnc1` across the screens: -21 | 0.1
`COc1ccc2c(c1)Nc1ccccc1S2` across the screens: 6 | -0.4

Rewritten with values under each structure: entries from further up.
Values run as follows: Sa helicase inh | MgrA DNA FP
COc1cc2[nH]c(=S)nc(Nc3ccc(NC(C)=O)cc3)c2cc1OC
 : 41 | .
C=CCN1C(=O)OC(C)(CCC=C(C)C)C1(C)O (stereo unspecified)
 : 9 | .

The listing continues.
SMILES	Sa helicase inh	MgrA DNA FP
O=C(CCn1ccc2cc(S(=O)(=O)N3CCCC3)ccc21)NC1CC1	-12	.
CCOC(=O)c1cnn(C(=O)Cc2cccc(OC)c2)c1N	.	-3.6
C/C(N)=C(/C#N)C(=O)CSc1ccccc1F	8	.
Nc1nc(CSc2nnc3c(n2)[nH]c2ccccc23)cs1	0	1.9
COC(=O)c1ccc(N=Cc2nc(-c3ccc(Br)cc3)oc2O)cc1	.	-1.1
CCOC(=O)CSc1nc2c(cc1C#N)CCCC2	11	1.0
CC(C1CC1)N(C(=O)c1ccc(N)cc1)c1ccccc1 (stereo unspecified)	11	-0.6
CCOc1cc([N+](=O)[O-])c(OCC)cc1N1CCOCC1	.	-0.2
O=C(NCc1ccccc1)c1c(O)c2ccccc2[nH]c1=O	-17	.
CC(C)CNS(=O)(=O)c1ccc(CCC(=O)Nc2ccc3c(c2)OCO3)cc1	24	-8.2
Cc1cc(C(=O)N(CCc2ccccc2)c2nc3ccccc3s2)on1	-7	.
CC(CC(=O)Nc1nc(-c2cccs2)cs1)c1ccccc1 (stereo unspecified)	17	.
COc1ccc(C(=O)N2CCN(c3ccc(Cl)c(Cl)c3)CC2)cc1OC	-15	.
C=C1SC(Nc2ccc(C)cc2)=NC1(C)C	.	4.0
O=C(Nc1ccc2c(c1)OCO2)c1cc2n(n1)C(C(F)(F)F)CC(c1ccc(Cl)c(Cl)c1)N2 (stereo unspecified)	.	-1.6
CCN1CCN(C(=O)c2ccc(COc3ccc(Cl)cc3)o2)CC1	8	.
CCCCC(=O)NCc1ccc2c(c1)cc(C)n2C	5	.
CCCNC(=O)c1ccc(Cn2nc(-n3cccc3)c3c(C)cc(C)nc32)cc1	7	.
Cc1cccc(C)c1NC(=O)C(NC(=O)CC1NC(=O)NC1=O)c1ccccc1 (stereo unspecified)	-21	.
O=C(CC1SC(=Nc2ccc(O)cc2)NC1=O)c1ccccc1 (stereo unspecified)	18	.
CCS(=O)(=O)N1CCC(c2nc3ccccc3s2)CC1	-21	.
CCOC(=O)c1c(NC(=O)CSc2ncccn2)sc2c1CCC2	-4	-1.6
CCCN(CCC)CN1CC(Cn2c3ccccc3c3ccccc32)OC1=O (stereo unspecified)	11	0.8
Cc1ccccc1CNCc1cccnc1	9	-3.3
CC(=O)N1CCN=C1SCc1ccc(Br)cc1	7	.
Carrying on:
SMILES	Sa helicase inh	MgrA DNA FP
OCC1(C2=NOC(O)(C(F)(F)F)C2)CCCCC1 (stereo unspecified)	9	-4.1
Cc1ccc2sc(-c3ccc(NC(=O)C(C)C)cc3)nc2c1	4	-2.5
COc1ccc(-c2[nH]c(=S)nc(N)c2-c2nc3ccccc3n2C)cc1	14	.
O=C(CCn1c(=S)[nH]c2ccsc2c1=O)N1CCN(c2ccccc2)CC1	5	0.2
CCOC(=O)c1cc(NC(=O)c2cc3ccccc3oc2=O)sc1CC	.	-0.8
N#Cc1ccc(N2CCN(c3ccc(C(F)(F)F)cn3)CC2)nc1	.	-1.2
CCCCSc1nc2c(cnn2-c2ccccc2)c(=O)[nH]1	-27	.
Cc1nnc(C)n1/N=C/c1ccccc1C(F)(F)F	-14	0.6
FC(F)(F)c1ccnc(N2CCC(NC(=S)NC3CC3)CC2)n1	.	0.3
NC(=O)C1CCN(C(=O)CSc2ccc3ccccc3c2)CC1	-10	-1.4
Cc1ccc(Oc2cc(C#N)c3ccccc3n2)c(-n2nc3ccccc3n2)c1	-12	-0.1
COc1cccc(NC(=O)c2oc3ccccc3c2NC(=O)C2CCCC2)c1	14	.
O=c1[nH]c2ccc(Cl)cc2c(-c2ccccc2)c1N1CCN(CCO)CC1	12	-1.4
O=C(OCC(=O)N1CCCCC1)c1c(Cl)cccc1Cl	7	.
CNC(=S)NCCc1cc2c(OC)ccc(OC)c2[nH]c1=O	10	.
Cc1ccc(C(=O)NCC(c2ccco2)N2CCCC2)cc1 (stereo unspecified)	15	.
O=c1c2cccnc2n(Cc2cccc(F)c2)c(=O)n1CCc1c[nH]c2ccccc12	10	.
O=C(Oc1ccc(Cl)cc1Sc1cc(Cl)ccc1OC(=O)c1ccc([N+](=O)[O-])cc1)c1ccc([N+](=O)[O-])cc1	.	1.0
C=C(C)Cc1c(C)nc(N)[nH]c1=O	11	-2.6
Clc1ccc2nc(-c3ccc(Br)cc3)cn2c1	.	-0.7
O=C(CSc1ccccn1)N(C1CCCCC1)C1CCS(=O)(=O)C1 (stereo unspecified)	-7	.
Cc1onc(-c2c(Cl)cccc2Cl)c1CC#N	.	-2.9
Cc1ccc(C)n1-c1sc2c(c1C#N)CCCC2	0	.
Cc1ccc(S(=O)(=O)N2CCc3ccccc3C2)cc1C(N)=O	11	3.2
CC(=O)N(Cc1nc(-c2ccccc2)no1)C(C)C	3	-0.8
Next part.
SMILES	Sa helicase inh	MgrA DNA FP
O=C(Nc1ccccc1)OCc1cc(-c2ccccc2)c(C(F)(F)F)s1	.	-1.2
Cc1c(Cl)cccc1NC(=O)C1CC2CCCC(C1)C2=O (stereo unspecified)	13	-0.2
O=C(Cn1c(=O)n(Cc2ccc(C(=O)NC3CCCC3)cc2)c(=O)c2ccccc21)c1ccccc1	15	-1.9
Cc1cc(C(N)=O)oc(=O)c1	.	0.9
COc1c(S(=O)(=O)n2cnc3ccccc32)ccc(Cl)c1Cl	14	.
Cc1ccc(NC(=O)c2cc(S(=O)(=O)N3CCCCC3)ccc2F)cc1	-3	.
COC(=O)Nc1c(C)n(C)n(-c2ccccc2)c1=O	2	-1.9
CN(C)S(=O)(=O)c1ccc(/C(O)=C2\C(=O)C(=O)N(Cc3cccnc3)C2c2ccco2)cc1 (stereo unspecified)	8	.
COc1ccc(NC(=O)c2oc(=O)c3ccccc3c2-c2ccccc2)cc1	-3	.
CS(=O)(=O)N1CCn2c(nc3ccccc32)C1	8	.
CC(OC(=O)c1cc(Cl)c(O)c(Cl)c1)C(=O)N1CCCCC1 (stereo unspecified)	1	.
O=C1c2ccc(F)cc2C(=O)N1C1CCCCCCC1	-16	0.9
CN(C)c1nc(N(C)C)nc(N(C)C)n1	11	-1.2&5.0
O=S(=O)(NCc1ccco1)c1ccccc1	.	-0.1
CCC(C)OC(=O)C1=C(C)NC2=C(C(=O)CC(c3ccc(OC)cc3)C2)C1c1ccc(OC)c(OC)c1 (stereo unspecified)	.	-0.3
Oc1ccccc1CNCc1ccccn1	6	7.7
Cc1cnc(C(=O)OCC(=O)c2c[nH]c3ccccc23)cn1	-18	.
COC(=O)c1ccc(OC2OCCOC2Oc2ccc(C(=O)OC)cc2)cc1 (stereo unspecified)	-7	1.3
Cc1cc(I)ccc1NC1CCOC1=O (stereo unspecified)	7	.
Cn1c(C(=O)NCc2ccccc2)cc2oc3ccccc3c21	4	-1.7
CCc1ccc(CNC(=O)COc2cc(=O)n(C)c3ccccc23)cc1	-8	-1.4
CCOC(=O)C1CCN(C(c2cccc(Cl)c2)c2c(NC(C)=O)sc3c2CCCC3)CC1 (stereo unspecified)	7	-1.6
O=C(/C=C/c1cccs1)Nc1cccc(C(F)(F)F)c1	13	-2.5
COc1ccc(-c2c(C)nn3c(N)c(C#N)cnc23)cc1OC	-20	.
COc1ccc(-c2cc(-c3ccccc3)nc(SCC#N)c2C#N)cc1	.	-0.8

Ordered by value in Sa helicase inh (rising): 3 of the compounds above
SMILES	Sa helicase inh	MgrA DNA FP
COc1ccc(NC(=O)c2oc(=O)c3ccccc3c2-c2ccccc2)cc1	-3	.
Cn1c(C(=O)NCc2ccccc2)cc2oc3ccccc3c21	4	-1.7
O=C(Cn1c(=O)n(Cc2ccc(C(=O)NC3CCCC3)cc2)c(=O)c2ccccc21)c1ccccc1	15	-1.9

Seven compounds drawn at random from the list so far:
SMILES	Sa helicase inh	MgrA DNA FP
COc1c(S(=O)(=O)n2cnc3ccccc32)ccc(Cl)c1Cl	14	.
O=S(=O)(NCc1ccco1)c1ccccc1	.	-0.1
CCc1ccc(CNC(=O)COc2cc(=O)n(C)c3ccccc23)cc1	-8	-1.4
Cn1c(C(=O)NCc2ccccc2)cc2oc3ccccc3c21	4	-1.7
CS(=O)(=O)N1CCn2c(nc3ccccc32)C1	8	.
Cc1cnc(C(=O)OCC(=O)c2c[nH]c3ccccc23)cn1	-18	.
O=C1c2ccc(F)cc2C(=O)N1C1CCCCCCC1	-16	0.9

Next section:
SMILES	Sa helicase inh	MgrA DNA FP
CN(C)S(=O)(=O)c1cccc(C(=O)Oc2ccc3c(c2)OCO3)c1	-3	.
CCc1ccc(NC(=O)c2cc3c(=O)oc4ccccc4c3s2)cc1	1	-0.5
Cc1ccc(-c2cc3ccccn3c2)cc1	-12	1.1
Cc1ccc2[nH]c(=S)n(C3CC4C=CC3C4)c(=O)c2c1 (stereo unspecified)	.	3.0
CCCCSc1n[nH]c(=S)s1	.	5.4
c1ccc(CN2CCN(CCCNc3ccc4nncn4n3)CC2)cc1	8	.
N#CCc1ccc(NC(=O)c2cc(Cl)ccc2NS(=O)(=O)c2cccc3nsnc23)cc1	.	-1.8
C=CCn1c(SC)nc2sc(CC)cc2c1=O	7	-2.5
N#Cc1ccc(Cn2c(CC3CCS(=O)(=O)C3)nc3ccccc32)cc1 (stereo unspecified)	5	.
Cc1ccc(CSCC(=O)N2CCN(c3ccccc3)CC2)cc1	0	-1.4
Cc1cccc(NC(=O)CN(CC(=O)Nc2cccc(C)c2C)Cc2ccco2)c1C	-4	.
Cc1ccc(CSCCC(=O)O)cc1	2	-3.0
O=C(NC(=O)c1ccccc1F)NC1CC1	2	.
COc1ccc(C2CC(C(F)(F)F)n3nc(C(=O)Nc4cccc(C(C)O)c4)c(Cl)c3N2)cc1OC (stereo unspecified)	.	4.1
NC(=O)C(c1ccccc1)c1ncc(C(F)(F)F)cc1Cl (stereo unspecified)	.	-0.5
COc1cc2c(cc1OC)C(Nc1ccc(Br)cc1)=NC(C)(C)C2	8	1.6
COC(=O)C1=C(C)NC2=C(C(=O)CC(c3ccco3)C2)C1c1cccc(OC)c1 (stereo unspecified)	4	-1.4
O=C(NC1CCN(Cc2ccc(Cl)cc2Cl)CC1)c1ccccc1	.	-2.7
COc1ccc(C(=O)COC(=O)c2ccc(S(=O)(=O)N(C)C)cc2)cc1	-6	.
C=CCOc1ccc(C(=O)N2CCOCC2)cc1	12	.
COc1ccc(N2C(N)=C(C#N)C(c3ccc(O)c(OC)c3)C3=C2CCCC3=O)cc1 (stereo unspecified)	3	-0.2
CCOC(=O)c1c(C)[nH]c(N=Nc2ccccc2)c1C	9	.
COc1ccc(C2C(C(=O)NC3CCCC(C)C3C)c3ccccc3C(=O)N2C)cc1 (stereo unspecified)	6	0.4
COC(=O)c1sccc1NS(=O)(=O)c1ccc2c(c1)CCO2	.	1.1
